UCH37 DUB inh = human UCH37 deubiquitinating enzyme inhibition; AID 588478; Q9Y5K5; purified proteasome/UCH37, Ub-AMC cleavage fluorescence; 330,000 compounds, 0.33% hits; inhibition, % (no concentration beside the values);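 active = mean of two replicates above 20%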;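 note: 0% = compound-free wells with enzyme and 100% = wells lacking proteasome; stock transfer was 100 nL into about 20 µL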
Target sequence (Q9Y5K5 whole entry, looked up): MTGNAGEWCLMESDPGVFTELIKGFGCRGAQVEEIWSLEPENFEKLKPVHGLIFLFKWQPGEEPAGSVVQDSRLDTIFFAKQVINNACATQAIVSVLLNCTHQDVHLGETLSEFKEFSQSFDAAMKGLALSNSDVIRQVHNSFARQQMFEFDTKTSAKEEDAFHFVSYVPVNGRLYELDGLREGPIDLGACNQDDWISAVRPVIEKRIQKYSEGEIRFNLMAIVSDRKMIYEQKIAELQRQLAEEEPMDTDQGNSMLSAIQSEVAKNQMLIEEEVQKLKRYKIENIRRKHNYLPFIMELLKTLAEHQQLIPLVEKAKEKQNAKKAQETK
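assay system = human UCH37 enzyme supplied as purified proteasome complex | amount = proteasome at 0.15 nM in the dispensed enzyme solution | schedule = 30 min compound-proteasome preincubation then 25 min substrate reaction, room temperature | measured by = fluorescence, ex 355 nm, em 460 nm | benchmarks = no-proteasome wells (full inhibition) and compound-free wells (no inhibition)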
Vif TR-FRET = inhibitors of Vif binding to APOBEC3G peptide, primary screen, biochemical, TR-FRET, GST-Vif 1-94, biotin-A3G peptide, dose response retest (AID 1117319); TR-FRET GST-Vif / biotin-A3G peptide binding; higher % means a stronger effect; test concentration not given here; strong numbers were not always called active; 260,000 compounds, 0.57% hits; inhibition, %, or IC50 in µM where a hit was titrated;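 active = above the screen mean plus three standard deviations and confirmed in dose response; inconclusive = results disagree or hit not tested in dose response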;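 note: Vif residues 1-94 fused to GST binding biotinylated APOBEC3G peptide 110-148; 0% = full assay without inhibitor and 100% = GST in place of GST-Vif; retest series ran down from 100 µM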
HNF4A DNA FP = change in binding of human HNF4 alpha to DNA | P41235 | HNF4a-FITC DNA binding, fluorescence polarization, 1 h | 360,000 compounds, 0.3% hits | activity change, % at 10 µM; in the data active = activity change above about 30%, passing the limit was not always enough;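 note: controls were the assay level and a saturating level of protein; the project sought stronger binding though the title names inhibitors; some compounds called inactive have numbers as strong as hits; positive values seem to mean higher polarization but the record does not say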
FGF22 binding = binders of recombinant human FGF22 by thermal shift; AID 651658; Q9HCT0; 340,000 compounds, 1.5% hits; calls only at 9.99 µM; SYPRO orange fluorescence; percent of sucrose octasulfate shift, DMSO zero;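 active = melting point raised past a set limit in the mean and every replicate; inconclusive = no clear call; three in four hits are not shown here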
Target sequence (Q9HCT0 whole entry, looked up): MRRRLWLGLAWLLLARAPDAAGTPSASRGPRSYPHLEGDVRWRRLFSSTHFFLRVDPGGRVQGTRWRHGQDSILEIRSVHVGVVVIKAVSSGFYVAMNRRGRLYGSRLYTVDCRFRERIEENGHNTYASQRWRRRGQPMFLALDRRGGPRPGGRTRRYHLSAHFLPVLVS
E coli growth = inhibitors of Escherichia coli growth. OD600, 23 h; hits give low values. OD600 absorbance (test concentration not listed). 330,000 compounds, 0.21% hits;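 active = OD600 absorbance below the run mean of sample wells minus 3.6 SD, in any replicate, cut at about 0.56 in these data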;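 note: stock transfer was 300 nL into about 60 µL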
RanGTP-Impb inh = disruptors of Ran-importin-beta complex formation – biochemical, FRET, CFP-Ran, YFP-importin-beta, homogeneous, primary screen; cell-free CFP-Ran/YFP-importin-beta FRET ratio; inhibition, % (concentration not given with the values); 300,000 compounds, 1.1% hits; AID 2216;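 active = most replicates above 15%; inconclusive = exactly half above 15%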;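 note: 0% = DMSO wells and 100% = Ran loaded with GDP instead of GTP; wells of about 40 µL received 100 nL stock; the first replicate is given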
AF4-AF9 inh = inhibitors of human MLL-AF4/AF9 interaction; inhibition, % at 10 µM; AID 651704; P42568; AlphaScreen, biotin-AF4 peptide binding to FLAG-AF9; 350,000 compounds, 0.47% hits;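 active = every replicate reaching a set inhibition limit, whatever the replicate mean, cut at about 25% in these data; inconclusive = mean inhibition reaches that limit but some replicates miss it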;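 note: 0% = plate neutral control median and 100% = total signal loss; the record names both 10 and 1 µM as test concentration; the first replicate is given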
Target sequence (P42568 whole entry, looked up): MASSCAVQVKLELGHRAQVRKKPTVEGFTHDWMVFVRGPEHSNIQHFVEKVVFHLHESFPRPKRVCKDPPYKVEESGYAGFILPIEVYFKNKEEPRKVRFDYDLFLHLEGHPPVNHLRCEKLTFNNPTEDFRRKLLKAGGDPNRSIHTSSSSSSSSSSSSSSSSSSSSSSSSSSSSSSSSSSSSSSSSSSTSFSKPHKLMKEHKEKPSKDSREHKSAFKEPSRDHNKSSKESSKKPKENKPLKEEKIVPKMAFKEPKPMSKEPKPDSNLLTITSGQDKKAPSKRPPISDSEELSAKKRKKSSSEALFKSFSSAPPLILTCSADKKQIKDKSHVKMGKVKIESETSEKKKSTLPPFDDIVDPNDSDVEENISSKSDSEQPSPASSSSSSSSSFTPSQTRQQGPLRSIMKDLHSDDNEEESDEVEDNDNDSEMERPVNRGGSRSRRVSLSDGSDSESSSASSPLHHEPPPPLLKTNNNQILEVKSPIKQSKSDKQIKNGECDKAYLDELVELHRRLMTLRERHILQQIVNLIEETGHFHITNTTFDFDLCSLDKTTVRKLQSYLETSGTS
An asterisk follows results filed as active; i = inactive; ? = inconclusive; / = not tested or not shown; & = joins results of further samples. Not all compounds are listed; the hit share may differ from the screen's.

SMILES	UCH37 DUB inh	Vif TR-FRET	HNF4A DNA FP	FGF22 binding	E coli growth	RanGTP-Impb inh	AF4-AF9 inh
COc1cc(NC(=O)c2cc3nc(C)cc(C)n3n2)c(OC)cc1Cl	-13.6	92.1µM*	-2.6	/	0.746	?	/
Cc1cccc(OCC(=O)NNC(=O)C2CCCCC2C(=O)O)c1 (centres undefined)	2.2	-8.0%	-2.0	i	0.678	-0.1	-8.3
CCOc1ccc(C2=Nn3c(nnc3-c3ccco3)SC2)cc1	1.1	2.3%	-1.4	/	0.747	4.3	/
CCN(CC)S(=O)(=O)c1ccc(OC)c(NC(=O)c2ccc(N3CCCC3=O)cc2)c1	5.6	-13.3%	3.0	i	0.674	/	0.4
Cc1cc(C(=O)Nc2cccc(O)c2)co1	2.4	16.7%	1.0	/	0.701	1.6	/
CCCSc1ccc([C@@H]2[C@H]3C(=O)N(CC)C(=O)[C@H]3[C@]3(C(=O)OC)CCCCN23)cc1	0.9	/	7.3	i	/	1.5	-1.2
CCOc1cc(/C=N/n2cnnc2)ccc1OC(=O)c1cccc([N+](=O)[O-])c1	/	-0.3%	-0.1	/	/	5.0	/
CC(NC(=O)C(c1ccccc1)c1ccccc1)c1ccccc1 (centres undefined)	0.7	/	1.1	i	0.671	-1.6	/
Cc1ccc(Sc2ccc(CN3CCCCC3)cc2[N+](=O)[O-])cc1	2.6	/	-1.0	i	0.615	0.7	29.1*
O=C1CC(c2ccc3c(c2)OCO3)c2cc3c(cc2N1)OCCO3 (centres undefined)	2.8	8.6%	-1.0	/	0.731	6.9	/
CCN1CCN(C(=S)NCCc2ccccc2)CC1	1.4	31.9%	2.6	/	0.62	1.3	/
COc1cc(CNc2ccc(CNc3ncn[nH]3)cc2)ccc1OCc1ccccc1	2.7	/	-1.9	/	0.708	1.3	/
O=C(O)CC1SC(=Nc2ccccc2)N(c2ccccc2)C1=O (centres undefined)	-1.0	?	-1.2	/	0.765	1.9	/
NS(=O)(=O)c1ccc(CCNC(=O)CCC(=O)c2cccs2)cc1	-2.9	-9.6%	6.8	i	0.697	/	0.9
CN1CCN(S(=O)(=O)c2cccc(C(=O)N(C)Cc3c(F)cccc3Cl)c2)CC1	-0.3	-9.8%	3.7	i	0.641	/	2.1
COc1ccc2oc(=O)cc(-c3cc4cccc(OC)c4o3)c2c1	-6.1	/	2.1	i	0.662	-0.4	-2.1
CCN(CC)S(=O)(=O)c1ccc(C(=O)NCc2ccc3[nH]c4c(c3c2)CCCC4)cc1	1.3	-1.3%	-0.2	i	0.708	0.8	5.8
CC(=O)c1cc2c(C)cc(=O)oc2cc1O	-58.9	8.5%	-1.4	i	0.679	4.0	0.0
CCNC(=S)N/N=C(\C)c1cccc(C(F)(F)F)c1	/	3.4%	4.1	/	/	/	8.3
O=C(c1cccc(F)c1)N1CCN(C(=O)c2cc(-c3ccc(Cl)cc3Cl)on2)CC1	2.7	0.4%&-10.7%	-2.4	/	0.701	-3.9	/
CCc1ccc(S(=O)(=O)NCc2cccs2)cc1	/	/	0.6	i	/	1.9	0.7
N#Cc1ccc(Oc2cc(C(F)(F)F)nc(-c3ccccn3)n2)cc1	3.6	-7.3%	-1.7	/	0.72	-3.0	/
C/C(=N\NC(=O)CCCNc1cccc(C)c1)c1ccncc1	/	/	4.2	i	/	-0.3	-0.2
COc1ccccc1CCNS(=O)(=O)c1c(C)n(C)c(=O)n(C)c1=O	0.6	2.0%	-0.9	i	0.729	0.7	5.7
O=C1CCC([N+](=O)[O-])C(c2ccc3c(c2)OCO3)N1 (centres undefined)	4.7	5.2%	-0.6	i	0.683	-2.4	0.1
SMILES	UCH37 DUB inh	Vif TR-FRET	HNF4A DNA FP	FGF22 binding	E coli growth	RanGTP-Impb inh	AF4-AF9 inh
Cc1ccc(NC(=O)C(C)OC(=O)c2ccc(NS(=O)(=O)c3ccc(F)c(F)c3)cc2)cc1 (centres undefined)	6.0	-4.0%	1.7	/	0.73	-4.3	/
COc1ccc(NC(=O)c2cc3n(n2)C(C(F)(F)F)CC(c2ccc4c(c2)OCO4)N3)cc1OC (centres undefined)	4.2	8.8%	2.5	/	0.686	/	/
Cn1c(SCc2cc(=O)[nH]c(C(C)(C)C)n2)nnc1C(F)(F)F	2.7	-14.5%	-1.6	i	0.676	-0.6	0.5
N#CC1=C(N)NC(SCC(=O)c2ccc(Br)cc2)=C(C#N)C12CCCCC2	2.9	-6.3%	0.5	i	0.688	0.7	7.0
COc1ccccc1NS(=O)(=O)c1ccc(C(=O)N2CCN(c3ccccn3)CC2)cc1	0.7	/	3.3	i	0.706	/	2.6
Cc1ccc(S(=O)(=O)N2C[C@H]3n4c(=O)ccc(=O)n4C[C@H](OC(=O)NCC4CCCCC4)[C@@]3(O)C2)cc1	/	-0.6%	-2.0	/	/	/	2.7
CCOC(=O)N1CCN(C(=O)C[C@@H]2C[C@@]3(C(=O)OCC)CCC=C3N(Cc3ccc4c(c3)OCO4)C2=O)CC1	/	/	-0.5	i	/	/	-2.2
CCOC(=O)/C=C/C(=O)Nc1ccccc1C(=O)NC1CCCCC1	0.0	-4.9%	-1.1	i	0.692	2.5	-23.1
Cc1ccc(NS(=O)(=O)c2cccc(C(=O)N3CCCC(C)C3)c2)cc1 (centres undefined)	1.2	-0.3%	-0.4	i	0.635	4.1	-7.9
CCOC(=O)C1CCCN(S(=O)(=O)c2ccc(OC)cc2)C1 (centres undefined)	2.0	-3.8%	-0.1	/	0.734	-0.4	/
CCc1c(C)nc2c(C#N)c[nH]n2c1=O	-0.6	-4.6%	6.1	/	0.711	0.2	/
Cc1cccc2c(=O)cc(C(F)(F)F)[nH]c12	0.6	4.1%	-3.6	i	0.611	-2.3	1.4
COc1ccccc1CNC(=O)c1cn(C)c2ccc(S(=O)(=O)N3CCCCC3)cc2c1=O	4.4	-6.3%	/	i	0.685	-4.0	-2.6
O=S(=O)(c1ccccc1)N1CCN(C(=S)NCCCN2CCOCC2)CC1	1.5	/	-4.6	i	0.672	-1.4	-5.1
Cc1nn(Cc2cccc(C(=O)Nc3ccn(Cc4ccccc4F)n3)c2)c(C)c1[N+](=O)[O-]	2.4	31.1%	2.2	/	0.745	-4.1	/
Cc1ccc2oc(=O)c3cc(C(=O)NCCCN4CCCCCC4)sc3c2c1	-31.4	/	19.9	i	0.618	2.8	7.2
Cc1ccc(C(=O)NNC(=O)c2ccncc2)cc1S(=O)(=O)N1CCOCC1	7.9	-10.0%	-2.4	i	0.639	-2.4	-2.6
Cc1cc(C)c(CN2CCN(C(=O)Cn3cnc4c(NCc5ccccc5)ncnc43)CC2)c(C)c1	1.5	/	0.3	i	0.701	/	-9.1
COc1ccc(CC(=O)Nc2nc(OCC(F)(F)F)cnc2-c2ccc(Cl)cc2Cl)cc1	/	/	2.0	i	/	/	-8.8
CCc1sc(C(=O)N2CCN(c3ccc(F)cc3)CC2)cc1C	-1.7	/	2.7	i	0.681	3.3	-9.1
Cc1nc2ccccc2n1CCN1CCOCC1	2.1	-1.0%	5.7	/	0.716	4.6	-2.1
O=C(CN(C(=O)CCC(=O)Nc1ccccn1)c1cccc(F)c1)NCc1ccco1	0.4	4.7%	6.5	i	0.71	1.4	-1.0
CCOC(=O)N1CCN(C(=O)CCCOc2ccccc2)CC1	0.3	?	-0.3	/	0.688	4.6	/
COc1ccc(OC)c(-c2[nH]nc3c2C(c2ccco2)C(C#N)=C(N)O3)c1 (centres undefined)	5.8	17.4%	4.0	/	0.769	-0.5	/
C=C1c2ccccc2NC(=S)N1Cc1ccc2c(c1)OCO2	5.8	/	-3.4	i	0.724	-1.6	-0.2
SMILES	UCH37 DUB inh	Vif TR-FRET	HNF4A DNA FP	FGF22 binding	E coli growth	RanGTP-Impb inh	AF4-AF9 inh
O=C(Nc1cccc(OC(F)(F)F)c1)C1Cc2c(-c3cccc(F)c3)ccnc2O1 (centres undefined)	/	/	4.8	i	/	/	0.3
Cc1nc2c(-c3ccc(F)cc3)c(C)nn2c(C)c1CCC(=O)Nc1ccccc1	-19.7	-7.0%	-1.9	i	0.735	6.7	9.2
COc1ccccc1N1CCN(CCN2C(=O)C3CCCCN3C2=O)CC1 (centres undefined)	1.5	/	-1.5	i	0.615	6.2	2.0
CC(C)(C)NC1=NCCNC(c2ccccc2)=C1	/	-1.9%	-0.3	/	/	/	1.5
CCC(C(=O)NC(C)(C)C)n1c(-c2ccc3c(c2)OCO3)nc2ccccc21 (centres undefined)	/	/	-1.7	i	/	/	-5.1
Cc1noc(C)c1NC(=O)N(C)C[C@@H]1Oc2cc(Br)ccc2S(=O)(=O)N([C@H](C)CO)C[C@@H]1C	/	5.9%	5.2	i	/	/	-0.3
COc1ccc(N2CCCn3c2nc2c3c(=O)n(Cc3ccccc3F)c(=O)n2C)c(OC)c1	3.0	-5.4%	-0.1	/	0.744	4.4	/
O=[N+]([O-])c1ncccc1OCc1ccc(Cl)c(Cl)c1	8.0	/	-3.7	i	0.676	-2.0	0.8
Nc1nc(Cl)nc2ccc(Br)cc12	/	3.9%	1.7	i	/	?	-4.3
CC(C(=O)O)C(=O)O	4.1	/	0.7	i	/	/	-2.4
c1cnc2nc(-c3ccc4c(c3)OCO4)cn2c1	-35.6	1.2%	-0.1	i	0.682	3.6	-0.9
CN1CCN(S(=O)(=O)c2ccc(NC(=O)Cc3cccs3)cc2)CC1	2.1	8.4%	-2.1	i	0.71	/	7.0
Cc1ccc(-c2nnn(CC(=O)N(CC3CCCO3)C(C(=O)NC3CCCCC3)c3ccc(F)cc3)n2)o1 (centres undefined)	2.4	3.6%	3.9	/	0.728	4.0	/
O=C(CNC(=O)c1[nH]cnc1C(=O)N[C@@H](Cc1ccccc1)C(=O)OCc1ccccc1)OCc1ccccc1	1.0	/	-1.7	i	/	1.3	-2.2
O=C(COC(=O)/C=C/c1cccc(F)c1)NC1CCCCCC1	3.9	-9.9%	4.4	i	0.721	/	-2.4
Cc1ccc(C(=O)N2CCc3ccccc3C2)cc1S(=O)(=O)N1CCOCC1	4.9	/	0.8	i	0.714	-0.1	1.4
O=C(COC(=O)c1cc([N+](=O)[O-])ccc1NCc1ccccc1)NCc1ccccc1Cl	3.8	/	-1.1	i	0.703	0.8	-8.8
CSCCC(NS(=O)(=O)c1ccccc1F)C(=O)NCC(c1ccc(F)cc1)N1CCOCC1 (centres undefined)	3.5	0.6%	0.2	/	0.699	-1.9	-1.8
Cc1ccccc1OCC(=O)NCCCNC(=O)c1ccco1	4.8	/	0.6	i	0.681	-1.4	1.1
Cc1ccc([N+](=O)[O-])c(OCCCN2CCCCCC2)c1	6.2	11.5%	5.7	i	0.699	1.2	7.8
O=c1c2cc(Cl)ccc2nc(-c2ccccc2Cl)n1O	2.7	-2.2%	3.2	i	0.721	4.0	-4.0
CCCCC(C(=O)NC1CCCC1)N(Cc1ccccc1)C(=O)c1snc(C(N)=O)c1N (centres undefined)	-42.3	2.8%	-1.0	i	0.638	2.5	3.7
CSc1ccccc1NC(=O)c1cc(-c2cccs2)on1	-14.9	18.0%	0.6	/	0.741	3.1	/
CCOC(=O)c1c(C)[nH]c(C(=O)OC(C)C(=O)Nc2ccccc2OC)c1C (centres undefined)	1.0	?	2.8	i	0.727	-4.4	-2.0
CCCCNC(=O)Nc1ccon1	3.5	23.2%	-0.3	/	0.729	0.3	/

Part of the list above in another layout:
Order of results – UCH37 DUB inh	Vif TR-FRET	HNF4A DNA FP	FGF22 binding	E coli growth	RanGTP-Impb inh	AF4-AF9 inh
- Cc1ccc(NS(=O)(=O)c2cccc(C(=O)N3CCCC(C)C3)c2)cc1 (centres undefined)
  1.2	-0.3%	-0.4	i	0.635	4.1	-7.9
- Cc1nc2ccccc2n1CCN1CCOCC1
  2.1	-1.0%	5.7	/	0.716	4.6	-2.1
- Cc1ccc(C(=O)N2CCc3ccccc3C2)cc1S(=O)(=O)N1CCOCC1
  4.9	/	0.8	i	0.714	-0.1	1.4
